MT1-MMP promoter = inhibitors of MT1-MMP promoter transcription, cell-based, luciferase reporter, luminescence (AID 618); MT1-MMP promoter luciferase reporter cells, luminescence; calls from a first round at 10 µM; hits with a dose series show EC50 in µM; actives 0.62% (n = 87,000);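 active means over half of the reporter light lost at 10 µM or EC50 under 50 µM; inactive means the rest and hits that failed the dose series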;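 further: actives suppress MT1-MMP promoter-driven transcription so potencies describe inhibitors; HT1080 fibrosarcoma cells; overnight exposure; toxic or luciferase-blocking compounds were not removed from the actives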
Hsc70 = Hsc70 inhibitors, probe displacement, primary screen, biochemical, fluorescence polarization (AID 568) | Heat shock cognate 71 kDa protein (Homo sapiens) | 83,000 tested, under 10 active | Hsc70 fluorescence polarization, probe displacement; higher % means a stronger effect; strong numbers were not always called active | one-dose displacement, % at 20 µM; IC50 in µM for titrated hits;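 active means displacement above 50% without optical interference and an IC50 on retest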;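 further: ATPase domain with a fluorescein-tagged ATP probe; 0% = vehicle and 100% = excess ADP; read after one hour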
WNV NS2B-NS3 inh = inhibitors of WNV NS2B-NS3 protease, primary screen, biochemical, fluorogenic substrate; fluorogenic substrate Ex360/Em465; stronger effect = lower value; Genome polyprotein (West Nile virus), P06935; AID 577, 2007; actives 0.18% (n = 65,000); z-score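 (tested at a level between 10 and 100 µM)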;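 active means z-score at -3 or under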;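 further: score is relative to mean and spread of the compound wells of a plate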
Target sequence (P06935 1371-1501 limits assumed): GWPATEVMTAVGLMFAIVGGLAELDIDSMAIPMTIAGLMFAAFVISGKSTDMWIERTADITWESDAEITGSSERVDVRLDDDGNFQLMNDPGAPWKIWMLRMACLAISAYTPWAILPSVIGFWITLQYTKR
Target sequence (P06935 1502-1679 limits assumed): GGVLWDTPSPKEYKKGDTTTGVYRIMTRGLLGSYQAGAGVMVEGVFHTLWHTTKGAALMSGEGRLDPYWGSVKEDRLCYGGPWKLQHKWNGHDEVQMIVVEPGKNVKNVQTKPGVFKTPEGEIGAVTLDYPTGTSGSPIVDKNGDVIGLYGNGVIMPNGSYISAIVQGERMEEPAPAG
* = called active by the depositor; i = inactive; . = no result given.

Compound	MT1-MMP promoter	Hsc70	WNV NS2B-NS3 inh
c1ccc(N2CCN(Cc3cn4cccnc4n3)CC2)cc1	i	-0.4%	-0.08
O=C(NC1CCCC1)C(c1ccccc1)N(C(=O)c1ccco1)C1CCCC1 (stereo unspecified)	i	4.6%	.
CCOC(=O)CN1C(=O)C(=O)c2cc(C)ccc21	i	2.6%	.
CCOC(=O)c1cnc2ccccc2c1NCCO	i	-0.6%	1.7
Cc1ccc(-c2nc(CS(=O)(=O)CC(=O)N3CCc4ccccc4C3)c(C)o2)cc1	i	5.8%	0.49
COc1ccc(OC)c(C2c3c(oc4ccccc4c3=O)C(=O)N2CCCN(C)C)c1 (stereo unspecified)	i	1.2%	0.17
COC(=O)CCC(=O)N1CCc2cc(S(=O)(=O)N3CCN(c4ccccc4Cl)CC3)ccc21	i	-5.2%	0.65
O=C1Nc2ccc(Br)cc2C1(O)Cc1ccncc1 (stereo unspecified)	i	1.9%	1.2
O=C(CSc1nnc2sc3ccccc3n12)NCc1ccc2c(c1)OCO2	i	5.9%	-0.21
Cc1cc(C(=O)Nc2sc3c(c2C#N)CCC3)no1	i	-6.4%	-0.68
COc1ccc(CN(C)C2CCCCC2)c(C)c1C	i	-0.8%	.
c1cnc(SCCOc2cccc3ccccc23)nc1	i	-2.1%	.
CC(C)(C)c1ccc(OCc2nc(-c3ccccn3)no2)c(Br)c1	i	-3.0%	-0.62
COC(=O)C(NC(=O)c1ccccc1)(Nc1nccs1)C(F)(F)F (stereo unspecified)	i	-4.6%	0.1
CCCn1c(C)nc2c(c1=O)c1nc3ccccc3nc1n2CCC1=CCCCC1	i	9.3%	1.1
COC(=O)C1(S(=O)(=O)c2cccc3nsnc23)CC1	i	-3.4%	0.07
CNC(=S)N/N=C1\C(=O)c2cccc3cccc1c23	i	9.4%	.
Cc1coc2cc3oc(=O)c4c(c3cc12)CCCC4	i	0.9%	0.67
COc1ccc(CCC2(C)NC(=O)NC2=O)cc1 (stereo unspecified)	i	0.5%	-0.84
CC(C)CNC(=O)CN(C1CCCCC1)S(=O)(=O)c1ccccc1	i	-1.5%	1.4

Some of the entries above in another layout:
CCCn1c(C)nc2c(c1=O)c1nc3ccccc3nc1n2CCC1=CCCCC1
- MT1-MMP promoter: i
- Hsc70: 9.3%
- WNV NS2B-NS3 inh: 1.1

COC(=O)CCC(=O)N1CCc2cc(S(=O)(=O)N3CCN(c4ccccc4Cl)CC3)ccc21
- MT1-MMP promoter: i
- Hsc70: -5.2%
- WNV NS2B-NS3 inh: 0.65

c1cnc(SCCOc2cccc3ccccc23)nc1
- MT1-MMP promoter: i
- Hsc70: -2.1%
- WNV NS2B-NS3 inh: .

CCOC(=O)CN1C(=O)C(=O)c2cc(C)ccc21
- MT1-MMP promoter: i
- Hsc70: 2.6%
- WNV NS2B-NS3 inh: .

Further records.
Compound	MT1-MMP promoter	Hsc70	WNV NS2B-NS3 inh
CCCCCC(=O)N1CCN(c2ccc(C(C)=O)cc2F)CC1	i	0.0%	-0.89
Cc1ccccc1NC1=CC(=O)CC(C)(C)C1	i	-0.8%	.
CCOc1ccc2nc(NC(=O)CSc3nc4ccccc4c(=O)n3Cc3ccco3)sc2c1	i	4.7%	-0.56
COCCNc1oc(-c2ccc(Cl)cc2)nc1C#N	i	2.7%	0.31
FC(F)(F)c1cccc(Nc2ncnc3ccccc23)c1	i	2.0%	0.37
CCC1(CC)NC(=O)N(CC(=O)OCn2nnc3ccccc3c2=O)C1=O	i	-2.9%	2.8
CCCCCCNCCn1cnc2c(N)ncnc21	i	6.3%	.
CCN(CC)c1nc(OCCNC(=O)Nc2ccccc2)nc(N(CC)CC)n1	i	-0.3%	.
COCC(C)n1c(C)cc(C(=O)CN2C(=O)NC(Cc3c[nH]c4ccccc34)C2=O)c1C (stereo unspecified)	i	0.6%	.
CC(C)(C)NC(=O)c1ccc2nccnc2c1	i	-11%	-0.73
NC(=S)N/N=C\c1ccc(-c2cccc(Cl)c2Cl)o1	i	-5.4%	.
COc1ccccc1-c1noc(-c2cccs2)n1	i	-1.2%	.
O=C(OCC(=O)N1CCN(C(=O)c2ccco2)CC1)c1cc(-c2ccco2)nc2ccccc12	i	3.6%	.
CCOC(=O)N1CCN(C(=O)CCN2C(=O)COc3ccccc32)CC1	i	-4.0%	0.07
S=c1nn[nH]n1C12CC3CC(CC(C3)C1)C2	i	-3.3%	.
N#Cc1nc(-c2ccco2)oc1NCCCn1ccnc1	i	4.1%	-0.5
NC(=O)C1CCN(Cc2nc(-c3ccccc3)no2)CC1	i	4.1%	-0.67
C=CCn1c(SCC(=O)Nc2ccc3c(c2)OCO3)nnc1-c1ccccc1	i	-5.3%	-0.37
Cc1noc(C)c1C(=O)OCC(=O)Nc1cc(Cl)ccc1Oc1ccccc1	i	5.4%	.
CCN(CC)C(=O)COC(=O)c1ccc(O)cc1	i	-5.4%	-0.49

No new results follow: an excerpt of the list.
Compound	MT1-MMP promoter	Hsc70	WNV NS2B-NS3 inh
CCCCCC(=O)N1CCN(c2ccc(C(C)=O)cc2F)CC1	i	0.0%	-0.89
Cc1ccccc1NC1=CC(=O)CC(C)(C)C1	i	-0.8%	.

The results go on:
Compound	MT1-MMP promoter	Hsc70	WNV NS2B-NS3 inh
CCCc1cc(N2CCCC2)n2nc(C)c(-c3ccccc3)c2n1	i	-8.9%	1.2
Clc1ccccc1CSc1nnc(-c2ccccn2)n1Cc1ccco1	i	4.3%	0.59
CCOC(=O)c1c(NC(=O)CSc2nnnn2-c2ccc(OC)cc2)sc(C)c1C	i	0.7%	.
CC(C)(C)Nc1nc(Oc2ccc(=O)n(-c3ccccc3)n2)nc(N2CCOCC2)n1	i	2.8%	-1.2
C/C(Nc1ccc(Cl)cc1)=C(/C#N)C(N)=O	i	0.6%	.
COc1ccc(CN2CCC(=O)NC2=O)cc1	i	3.1%	0.26
O=C(O)CCc1nn2c3ccccc3nc2n(CCN2CCCCC2)c1=O	i	1.8%	1.3
O=c1oc2c3c4c(cc2s1)CCCN4CCC3	i	7.4%	0.84
Cc1cc(C)n2nc(C(=O)Nc3nnc(C4CC4)s3)nc2n1	i	1.6%	.
Cn1c(NC(=O)c2cc(Br)ccc2Cl)cc(=O)n(C)c1=O	i	2.5%	-0.64
Cn1c(=O)[nH]c(=O)c2c1nc(CN1CCN(c3cccc(Cl)c3)CC1)n2CCc1ccccc1	i	0.7%	-0.43
CCOC(=O)N1CCN(C(=O)Cn2ccc3ccccc3c2=O)CC1	i	3.8%	0.36
CSc1cccc(NC(=O)C2CCN(S(=O)(=O)c3ccc(F)cc3)CC2)c1	i	-1.7%	-0.79
COc1ccc(Br)cc1CNc1ccc(O)cc1	i	-1.0%	-0.04
COc1cccc(C2C=C(c3ccc(Br)s3)Nc3ncnn32)c1OC (stereo unspecified)	i	-10%	-1.4
O=C1CC(N2CCC(c3nc4ccccc4s3)CC2)C(=O)N1 (stereo unspecified)	i	-2.0%	0.15
CCCn1nnc(NC(=O)c2cccc(OCC)c2)n1	i	1.8%	0.29
CCOC(=O)C(Sc1nn(C)c(=S)s1)C(C)=O (stereo unspecified)	i	0.8%	.
CCOC(=O)Cc1c(C)nc2cc(-c3ccc(C)cc3)[nH]n2c1=O	i	-2.7%	-0.69
O=C(NCC1CCCO1)C1CCN(S(=O)(=O)c2cccc3cccnc23)CC1 (stereo unspecified)	i	7.8%	-0.56

The results go on:
Second line of a record – MT1-MMP promoter, Hsc70, WNV NS2B-NS3 inh
- O=C(O)c1n[nH]c2ccccc12
 : i, 3.6%, 0.21
- COC(=O)c1ccc2c(=O)n(CCCN3CCOCC3)c(=S)[nH]c2c1
 : i, -2.3%, 1.4
- COc1cc(OC)cc(-c2cc3nc4c(c(N5CCN(c6ncccn6)CC5)n3n2)CCCC4)c1
 : i, -21%, -0.37
- Cc1cc(C)c(S(=O)(=O)NCCC2CCCN2C)c(C)c1 (stereo unspecified)
 : i, -6.4%, -0.16
- O=C(Cn1cc2c(n1)CCCC2)Nc1ccccc1Br
 : i, -1.0%, 0.15
- CCOCCCNC(=O)Cc1c(C(=O)O)[nH]c2ccc(Cl)cc12
 : i, -1.8%, 0.13
- COc1ccccc1NC(=O)CSc1nc(O)cc(=O)n1C
 : i, -11%, -0.85
- CCC1(COC(NC(=O)c2cccnc2)(C(F)(F)F)C(F)(F)F)COC1
 : i, 10%, 1.4
- Cc1c(C(=O)NCc2ccc3c(c2)OCO3)oc2ccc(S(=O)(=O)N3CCCCCC3)cc12
 : i, -4.9%, -0.11
- CCC(C)N(NC(C)=O)c1nc(Cl)nc(NC(C)(C)C)n1 (stereo unspecified)
 : i, 1.4%, .
- CC1(C)CC(NS(=O)(=O)c2ccc(S(=O)(=O)N3CCOCC3)cc2)CCO1 (stereo unspecified)
 : i, 1.4%, 0.93
- c1ccc(OCc2nn3c(-c4cccnc4)nnc3s2)cc1
 : i, -0.3%, -0.01
- CC(C)COc1ccccc1C(=O)NC(CO)C(=O)O (stereo unspecified)
 : i, 2.7%, .
- Cc1cccc(NC(=O)CC2NC3CCCCC3NC2=O)c1 (stereo unspecified)
 : i, 5.7%, -0.16
- O=C(Cn1nnc(-c2cccs2)n1)N1c2ccccc2Sc2ccc(C(F)(F)F)cc21
 : i, -5.1%, .
- CN1CCN(S(=O)(=O)c2ccc(NC(=O)c3ccc(Br)o3)cc2)CC1
 : i, 3.1%, 1.7
- COC(=O)c1ccc(Oc2nc(NC(C)C)nc(N(C)C)n2)cc1
 : i, -2.3%, -0.38
- COc1ccc(C(=O)N(CCN2CCOCC2)CC(=O)NC2CCCC2)cc1OC
 : i, 2.9%, -0.1
- O=C(C1CCCN(S(=O)(=O)c2cccc3cccnc23)C1)N1CCN(c2ccccc2F)CC1 (stereo unspecified)
 : i, -1.2%, -0.41
- O=C(NCc1ccc2c(c1)OCO2)Oc1ccccc1
 : i, 1.5%, 0.55
- O=C(Nc1ccc2c(c1)OCO2)C1CCCN1C(=O)Nc1ccccc1F (stereo unspecified)
 : i, -3.3%, 0.04
- CCC(C)n1cnc2c(c1=O)c1nc3ccccc3nc1n2-c1ccc2c(c1)OCCO2 (stereo unspecified)
 : i, -8.3%, -1.2
- CC(OC(=O)Cn1c(C(F)(F)F)nc2ccccc21)C(N)=O (stereo unspecified)
 : i, 5.5%, .
- CCOC(=O)c1cc2ccc(OC)c(OC)c2c(=O)s1
 : i, 1.8%, -0.36
- CCOC(=O)C1=C(C)NC(=O)NC1c1ccc(N(CC)CC)cc1 (stereo unspecified)
 : i, -4.8%, -1.3
- Cc1nc2nc3c(cn2n1)C(=O)CCC3
 : i, 0.2%, .
- O=C(NCc1cccs1)Nc1ccc2c(c1)OCO2
 : i, -3.9%, 2.1
- CCOC(=O)CC(=O)CSc1nc2c(sc(=S)n2-c2ccccc2)c(=O)[nH]1
 : i, -4.8%, 0.7
- C=CCNc1sc(C(=O)c2ccccc2)c(N)c1-c1nc2ccccc2s1
 : i, -2.2%, .
- CCSc1cc(C)nc2c(-c3ccccc3)c(C)nn12
 : i, 0.2%, .
- CCCOC(=O)/C(C(N)=NCc1ccccc1)=C(\O)OCCC
 : i, 4.0%, 0.04
- CCCN(CC1CC1)C(=O)Nc1ccccc1C
 : i, 6.0%, 0.45
- COC(=O)COc1cccc(NS(=O)(=O)c2ccc(NC(C)=O)cc2)c1
 : i, -1.0%, 0.66
- CC12CCC(C(N)=O)(c3nc4ccccc4nc31)C2(C)C (stereo unspecified)
 : i, 8.7%, -1.1
- O=C(O)CCCNS(=O)(=O)c1cccc2nsnc12
 : i, 1.7%, .
- O=C(CCc1ccccc1)NC(NC(=S)Nc1ccc(Br)cc1)C(Cl)(Cl)Cl (stereo unspecified)
 : i, 3.3%, .
- CCOC(=O)C1CCN(C(=O)CNC(=O)OC(C)(C)C)CC1
 : i, 8.7%, -0.98
- CSc1nc2ccc(NC(=O)C3CC(=O)N(Cc4ccccc4)C3)cc2s1 (stereo unspecified)
 : i, 0.7%, .
- Cc1ccc(CS(=O)(=O)CCC(=O)NCCN2CCCC2)cc1
 : i, -4.0%, -1.6
- COC(=O)c1cc2occc2n1CC(=O)N(C)C1CCCCC1
 : i, -2.1%, -0.14
- Cc1cc(C2=CC(C)(c3cc(C)oc3C)Nc3nc(C(F)(F)F)nn32)c(C)o1 (stereo unspecified)
 : i, 2.4%, -2.6
- COc1cc(C2c3c(oc4ccc(C)cc4c3=O)C(=O)N2c2cc(C)ccn2)cc(OC)c1OC (stereo unspecified)
 : i, 7.1%, -0.5
- CCn1ccc(=N)cc1
 : i, -1.6%, 1.5
- COCCOC(=O)c1c(C)nc(SCC(=O)Nc2cccc3ccccc23)c(C#N)c1-c1ccco1
 : i, -1.1%, .
- O=C1CCCN1CCCn1cnc2c([nH]c3ccc(F)cc32)c1=O
 : i, 4.5%, 0.25
- COC(=O)c1ccc(CSc2nc3ccccc3o2)cc1
 : i, -1.6%, -0.45
- Cc1ccc2c(c1)N(CC(=O)N1CCCc3ccccc31)C(=O)CO2
 : i, 0.7%, 0.29
- CC(=O)C1=C(O)C(=O)N(CCCO)C1c1ccccc1 (stereo unspecified)
 : i, 4.2%, .

Compound activity as filed in PubChem.
